PABP polyA inh: PABP-poly(A) binding inhibition | PABP-poly(A) RNA binding, fluorescence polarization | inhibition, % at 35 µM | 290,000 compounds, 1% hits;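 active = 50% or more with normal probe brightness, or confirmed in later tests; inconclusive = above 50% with abnormal brightness, or retests that disagree; inactive = below 50% or failed in later tests; about a fifth of its hits are not listed in these tables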;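 also: calls also rest on retests at 20 µM and on dose response follow-up; controls were probe without protein and protein plus probe with vehicle; some compounds called inactive have numbers as strong as hits; many hits fall short of the cut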
Target sequence (P11940 whole entry, looked up): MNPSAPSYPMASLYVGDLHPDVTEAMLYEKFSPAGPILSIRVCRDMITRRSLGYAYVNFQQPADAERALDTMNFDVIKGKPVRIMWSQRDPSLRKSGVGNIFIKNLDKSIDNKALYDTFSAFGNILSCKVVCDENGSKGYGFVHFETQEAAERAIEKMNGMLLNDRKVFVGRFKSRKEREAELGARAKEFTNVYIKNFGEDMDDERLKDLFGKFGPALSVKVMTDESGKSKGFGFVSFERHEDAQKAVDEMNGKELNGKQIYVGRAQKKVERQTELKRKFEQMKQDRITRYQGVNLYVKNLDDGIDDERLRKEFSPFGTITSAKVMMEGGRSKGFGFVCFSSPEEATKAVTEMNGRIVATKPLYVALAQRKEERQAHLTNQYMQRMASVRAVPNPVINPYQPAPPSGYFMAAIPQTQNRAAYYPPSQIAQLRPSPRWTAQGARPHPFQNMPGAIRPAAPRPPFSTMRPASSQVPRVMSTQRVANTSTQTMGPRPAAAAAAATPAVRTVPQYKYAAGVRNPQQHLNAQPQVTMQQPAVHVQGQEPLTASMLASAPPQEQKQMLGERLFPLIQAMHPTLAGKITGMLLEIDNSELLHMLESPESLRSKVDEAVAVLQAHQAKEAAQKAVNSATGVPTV
Env fusion inh: HIV envelope-mediated fusion inhibition | HeLa-JRFL Env/CEM21 cell fusion, luciferase | inhibition, % at 12.3 µM | 360,000 compounds, 1.1% hits;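 active = mean replicate inhibition score of at least 50 and every replicate individually at or above 50; inconclusive = only one of the two criteria met; inactive = mean below 50 and not all replicates reaching 50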;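 also: 0% = plate neutral controls and 100% = maraviroc near 300 nM; one replicate is shown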
UUG fidelity: alters start codon recognition fidelity in yeast; S. cerevisiae UUG-firefly luciferase reporter, luminescence/redox ratio; activity score, % at 18.7 µM; 350,000 compounds, 0.13% hits;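 active = replicate mean at a twofold rise or more, about +100% in these data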;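 also: firefly luciferase made from a UUG start codon reports start codon fidelity; reporter light over untreated wells divided by growth signal over untreated wells; some hits fall short of that in this replicate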
Rce1 inh: yeast Ras-converting enzyme inhibition; calls only; yeast membranes, quenched prenylated peptide cleavage fluorescence; 290,000 compounds, 0.27% hits; Q03530;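 active = fall in fluorescence gain of 50% or more versus controls, with final raw signal at or below 3038400; inconclusive = same 50% fall but final raw signal above 3038400; inactive = fall in fluorescence gain under 50%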;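 also: plate controls were neutral control wells for no effect and wells lacking membranes for full effect; tested at 10 µM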
Target sequence (Q03530 whole entry, looked up): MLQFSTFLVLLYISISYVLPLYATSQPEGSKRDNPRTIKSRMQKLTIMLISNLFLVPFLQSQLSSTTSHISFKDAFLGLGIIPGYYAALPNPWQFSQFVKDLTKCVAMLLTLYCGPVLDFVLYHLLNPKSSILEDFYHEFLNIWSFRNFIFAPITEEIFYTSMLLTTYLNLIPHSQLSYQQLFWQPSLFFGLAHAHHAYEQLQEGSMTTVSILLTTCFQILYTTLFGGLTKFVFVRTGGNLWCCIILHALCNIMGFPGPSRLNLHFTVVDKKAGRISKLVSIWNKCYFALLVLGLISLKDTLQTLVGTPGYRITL
MT1-MMP act inh: blocks activation of human MT1-MMP | HT1080 RFP-PRO-GFP cells, GFP/RFP ratio fluorescence, overnight; percent of plate control window, DMSO zero | GFP/RFP ratio change, % at 20 µM | 360,000 compounds, 0.061% hits | AID 651647;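 active = GFP/RFP ratio change of at least 30% with cell ATP level not reduced by more than half and red fluorescence within 50% of control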; also: strong numbers were not always called active
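Assay system – RFP-PRO-GFP reporter HT1080 cells · Compound dosing – single dose of 20 µM compound, 1% DMSO final · Incubation – overnight compound exposure at 37 °C · Measure – GFP/RFP fluorescence ratio · Benchmarks – DMSO wells and RFP-L50D-GFP cells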
eIF4H inh: inhibitors of RNA binding by human eIF4H | eIF4H fluorescence polarization binding assay | inhibition, % at 35 µM | 290,000 compounds, 0.94% hits | AID 2012;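 active = 50% or more with normal probe brightness, or confirmed in later tests; inconclusive = above 50% with abnormal brightness, or retests that disagree; inactive = below 50% or failed in later tests; about a fifth of its hits are not listed in these tables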;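 also: calls also rest on retests at 20 µM and on dose response follow-up; 0% = protein and probe with vehicle and 100% = probe without protein; strong numbers were not always called active; many hits fall short of the cut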
CSC inhib: blocks cancer stem cells. 300,000 compounds, 1.1% hits. inhibition, % at 7.5 µM. cancer stem cell-like cells viability, luminescence;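 active = mean at 75% or more and at least half the replicates too; inconclusive = mean and replicates disagree; tested in HMLE shEcad cells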;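 also: 0% = median of negative and 100% = median of positive control wells; the first replicate is given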
eIF4H inh retest: also measured in eIF4H inh; calls as there; inhibition, %; compound at 20 µM; confirmation average;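 mean of two retest wells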
PABP polyA inh retest: recorded beside PABP polyA inh, whose call it bears; inhibition, %; compound at 20 µM; confirmation repeats;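 mean of two retest wells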
MT1-MMP act inh RFP: further read-out of MT1-MMP act inh, marked with its call; RFP signal change, %; measured here: RFP expression control read;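 0 = vehicle wells; hits needed this value within 50% of zero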
Starred values were filed as active, the others as inactive; i = inactive; u = inconclusive; x = no result given; & = joins results of further samples.

SMILES	PABP polyA inh	Env fusion inh	UUG fidelity	Rce1 inh	MT1-MMP act inh	MT1-MMP act inh RFP	eIF4H inh	CSC inhib	others
COC(=O)[C@H](C)NC(=O)NCc1ccccc1	1	9	12	i	-2	1	40	-5
Cc1[nH]nc(SCC(=O)NCc2ccc(Cl)cc2)c1[N+](=O)[O-]	-3	5	x	i	3	1	4	19
CC(C)CCNC(=O)CN(Cc1ccco1)C(=O)c1snc(C(N)=O)c1N	1	10	-8	i	x	x	10	14
CCNS(=O)(=O)c1ccc(CCC(=O)N2CCN(C(=O)OCC)CC2)cc1	-12	2	-4	i	-2	1	-8	-6
COc1ccc(CNC(=O)/C=C/c2cc([N+](=O)[O-])ccc2OC(F)F)cc1OC	-4	-13	-1	i	1	-3	-16	-14
COCCNC(=O)C1(C)CCN(C(=O)Cc2ccc(OC)c(OC)c2)C1 (configuration not stated)	x	19	-16	x	0	6	x	x
COc1cccc(NC(=O)CN(C)C(=O)c2ccc(COc3ccccc3)cc2)c1	x	-11	x	i	1	-9	x	-9
CC(=O)CSc1cc(C)nc2c(-c3ccccc3)c(C)nn12	3	38	x	i	7	1	-5	3
C=C(C1=CCN(S(=O)C(C)(C)C)[C@H]1CCO)c1ccccc1 (some centres not stated)	x	2	-14	x	-4	-2	x	x
CC(=NCc1cccnc1)C1=C(O)c2ccccc2C1=O	-4	-14	-11	i	-1	-2	-2	-8

Part of the list above in order of molar mass, lowest first.
SMILES	PABP polyA inh	Env fusion inh	UUG fidelity	Rce1 inh	MT1-MMP act inh	MT1-MMP act inh RFP	eIF4H inh	CSC inhib	others
Cc1[nH]nc(SCC(=O)NCc2ccc(Cl)cc2)c1[N+](=O)[O-]	-3	5	x	i	3	1	4	19
COCCNC(=O)C1(C)CCN(C(=O)Cc2ccc(OC)c(OC)c2)C1 (configuration not stated)	x	19	-16	x	0	6	x	x
CCNS(=O)(=O)c1ccc(CCC(=O)N2CCN(C(=O)OCC)CC2)cc1	-12	2	-4	i	-2	1	-8	-6
COc1cccc(NC(=O)CN(C)C(=O)c2ccc(COc3ccccc3)cc2)c1	x	-11	x	i	1	-9	x	-9
COc1ccc(CNC(=O)/C=C/c2cc([N+](=O)[O-])ccc2OC(F)F)cc1OC	-4	-13	-1	i	1	-3	-16	-14

(listing goes on)
SMILES	PABP polyA inh	Env fusion inh	UUG fidelity	Rce1 inh	MT1-MMP act inh	MT1-MMP act inh RFP	eIF4H inh	CSC inhib	others
CCc1cc(=O)oc2c(C)c(OCC(=O)NCCN3CCOCC3)ccc12	-5	-4	-18	i	1	6	0	-5
O=C(NNC(=O)c1ccccc1O)c1cccc(Br)c1	-10	1	5	i	8	3	-4	9
CC(=O)c1c(N2CCN(C)CC2)nc(=S)n(Cc2ccccc2)c1C	2	x	-13	i	-7	0	41	x
CCCCCC1CC(CC#CCN2CCOCC2)C(=O)O1 (configuration not stated)	1	1	-11	i	5	3	5	x
CC(C)CN1C(=O)/C(=C/c2ccco2)NC1=S	8	15	-6	i	-25	13	24	-7
C[C@H](CO)N1C[C@H](C)[C@@H](CN(C)Cc2ccccc2C(=O)O)OCc2cnnn2CCCC1=O	x	-11	-24	x	3	5	x	x
O=C(CSc1ncn[nH]1)Nc1nnc(-c2ccccc2)s1	-4	x	-13	i	-1	3	-17	-3
CCOc1cc(NC(=S)N2CCC(C(N)=O)CC2)c(C(=O)OC)cc1OCC	8	-8	-16	i	3	1	5	-16
COC(=O)CC1Oc2ccccc2N(Cc2ccccc2)C1=O (configuration not stated)	24	-4	-8	i	2	0	-1	3
O=C(/C(C=Nc1ccc(Br)cc1)=C(/O)c1ccco1)C(F)(F)F	8	-103	-47	i	-12	1	1	54
CCc1ccc(-c2cc3c(=O)n(CC(=O)NCCN4CCCCC4C)nc(C)n3n2)cc1 (configuration not stated)	2	-2	-13	i	-3	0	-2	80*
O=[N+]([O-])c1ccc(N2CCN(c3ccccc3F)CC2)nc1	-5	-17	-10	i	0	2	4	-4
O=[N+]([O-])c1ccc(N2CCCCC2)cc1SCCO	7	15	x	i	0	2	80	13	eIF4H inh retest=3;PABP polyA inh retest=16
COCCn1c(C)cc(C(=O)CN2C(=O)C(=O)N(CCC3=CCCCC3)C2=O)c1C	x	3	-8	x	-2	-3	x	x
O=C1C(=O)C(c2ccccc2)C(=O)C1c1ccccc1 (configuration not stated)	x	7	-4	x	2	4	x	x
COc1ccc(-c2nnn(CCC(=O)O)n2)cc1	3	u	-9	i	5	5	-2	2
COc1cc2c(cc1OC)C(c1cccc([N+](=O)[O-])c1)N(C(=O)c1ccccc1C(=O)O)CC2 (configuration not stated)	-2	13	5	i	8	6	11	-7
Cn1ccnc1SCC(=O)c1cc2ccccc2o1	86	-41	12	i	-11	9	27	0	eIF4H inh retest=-1;PABP polyA inh retest=20
Cc1nc2cc(N3CCCCC3)c(NC(=O)c3cccnc3)cc2c(=O)n1Cc1ccccc1	-6	9	-9	i	2	-5	-7	-8
COc1ccc(-c2ccc(CCC(=O)O)n2NC(N)=O)cc1	2	3	-24	i	-3	2	-5	-13

By substructure: those above with fluorine (3)
SMILES	PABP polyA inh	Env fusion inh	UUG fidelity	Rce1 inh	MT1-MMP act inh	MT1-MMP act inh RFP	eIF4H inh	CSC inhib	others
COc1ccc(CNC(=O)/C=C/c2cc([N+](=O)[O-])ccc2OC(F)F)cc1OC	-4	-13	-1	i	1	-3	-16	-14
O=C(/C(C=Nc1ccc(Br)cc1)=C(/O)c1ccco1)C(F)(F)F	8	-103	-47	i	-12	1	1	54
O=[N+]([O-])c1ccc(N2CCN(c3ccccc3F)CC2)nc1	-5	-17	-10	i	0	2	4	-4

New compounds follow.
SMILES	PABP polyA inh	Env fusion inh	UUG fidelity	Rce1 inh	MT1-MMP act inh	MT1-MMP act inh RFP	eIF4H inh	CSC inhib	others
COc1cc(S(=O)(=O)N2CCOCC2)cc(C(=O)NCC(c2cccs2)N2CCOCC2)c1OC (configuration not stated)	x	-2	-8	x	-6	1	x	-10
COC(=O)c1cc(C#N)c(NCc2ccc(Cl)cc2Cl)nc1C	-6	x	-10	i	4	4	-13	-3
Cc1ccc(CCNC(=O)C2CCCN(S(=O)(=O)N3CC(C)CC(C)C3)C2)cc1 (configuration not stated)	-1	6	-1	i	-1	-5	-9	0
CN(C)c1nc(NCc2ccccc2)nc(N/N=C/c2ccccc2F)n1	-7	x	x	i	x	x	-9	-7
O=C(Oc1cccc2ccccc12)C1CC1	7	-5	-1	i	-2	0	3	36
COc1ccc(-c2cnc3c(NC=O)cc(-c4ccc(C(=O)N5CCOCC5)cc4)cn23)cc1OC	x	19	-14	x	0	1	x	x
Cc1nn(C(C)C(=O)O)c(C)c1[N+](=O)[O-] (configuration not stated)	5	-5	-5	i	0	3	-3	-6
COC(=O)Nc1ccc(S(=O)(=O)N2CCCC(C(=O)N3CCCCCC3)C2)cc1 (configuration not stated)	-7	15	x	i	2	-2	-7	-9
CCC(=O)N(CCC(c1ccco1)C(C)C)Cc1ccccc1 (configuration not stated)	11	14	-15	i	-2	-3	-3	2
O=C(O)c1ccccc1-c1nc2ccccc2[nH]1	-2	-33	-24	i	1	2	-2	-15
O=C(Cn1cccc(C(F)(F)F)c1=O)c1ccc(Cl)cc1	-10	-11	-14	i	2	-1	-9	-3
O=C(O)CCC1COc2ccccc2O1 (configuration not stated)	0	-50	-17	i	4	4	-9	0
CCc1ccc(CN(C)C(=O)c2cccc(S(=O)(=O)Nc3ccccc3OC)c2)cc1	x	16	4	x	-4	-7	x	x
COC(=O)Cn1c(=NC(=O)c2ccc(OC)c(OC)c2)sc2cc(OC)ccc21	15	13	x	i	-3	-6	11	4
O=S(=O)(c1ccc(OCC(O)CN2CCN(c3ccc(F)cc3)CC2)cc1)N1CCOCC1 (configuration not stated)	-9	x	-9	i	3	0	-4	-15
O=C(Nc1ccc(C(=O)NCc2ccc(F)cc2)cc1)C1=CSCCO1	11	-15	2	i	9	9	-7	-1
Cn1nccc1C(=O)N1CCN(S(=O)(=O)c2ccc(Br)s2)CC1	-1	4	-12	i	1	1	-2	-13
Cc1cc(Oc2cc(NN3CCCCC3)c([N+](=O)[O-])cc2[N+](=O)[O-])c(C(=O)c2ccccc2)cc1Cl	-3	29	-5	i	-4	-5	-7	-1
COc1ccc(CNC(=O)CNS(=O)(=O)c2cccc(C#N)c2)cc1OC	-13	23	-20	i	-2	3	-18	6
C[C@H]1CN([C@@H](C)CO)C(=O)c2cc(NC(=O)NC3CCCCC3)ccc2O[C@H]1CN(C)C(=O)Nc1ccc(C(F)(F)F)cc1	x	13	-2&17	x	-3	-1	x	x
CC(=O)c1ccc(S(=O)(=O)N(C)CCCC(=O)NCc2ccc3c(c2)OCO3)cc1	x	-25	-6	x	-6	-1	x	x
CCc1ccc(NC(=O)C2(c3ccccc3)CC2(Cl)Cl)cc1 (configuration not stated)	-10	-46	-20	i	-7	-4	-12	6
OC(COc1ccc2ccccc2c1)CN1CCOCC1 (configuration not stated)	6	-18&-72	-10	i	0&-2	0&-9	-9	9
COc1cc(-c2cc(=O)c3c(O)c(OC)c(OC)cc3o2)cc(OC)c1O	14	x	-9	i	31*	-20*	13	-2
CCOc1ccc(CSC(CC(=O)O)C(=O)O)cc1 (configuration not stated)	-5	x	0	i	4	0	-4	-19
CC(C)(C)OC(=O)[C@H](CCCCN)NC(=O)c1[nH]cnc1C(=O)N[C@@H](Cc1ccccc1)C(=O)OCc1ccccc1	x	x	1	x	1	-2	x	-3
O=C(CSc1nnc(COc2ccccc2)o1)N1CCN(c2ccccc2)CC1	10	4	x	i	-8	-3	-4	x
COCCN(CCOC)c1cc(C)c(C#N)c2nc3ccccc3n12	-4	x	-56	i	0	1	-10	-9
COc1ccc(NC(=S)N(CCCN2CCOCC2)C(C)c2cc3ccccc3o2)cc1 (configuration not stated)	-8	4	-8	i	3	2	3	1
COC(=O)C1(C)CCCC2(C)c3cc(OC)ccc3C(=O)C(Br)C12 (configuration not stated)	x	-5	-18	x	0	-4	x	x
C[C@@H]1CN([C@H](C)CO)C(=O)CCCn2nncc2CO[C@H]1CN(C)S(=O)(=O)c1ccc(-n2cccn2)cc1	x	19	-4&18	x	1	4	x	x
Cc1ccc2[nH]c(C(=O)N/N=C/c3ccc([N+](=O)[O-])cc3)c(C)c2c1	6	-63	-24	i	0	-7	-1	52
CC(C)n1nnnc1C(c1ccc(F)cc1)N1CCN(C2CCCC2)CC1 (configuration not stated)	31	x	-16	i	-2	3	2	x
CCOc1ccc(/C(O)=C2\C(=O)C(=O)N(c3cc(C)on3)C2c2ccccc2OC)cc1 (configuration not stated)	-8	3	-6	i	6	2	1	-1
CS(=O)(=O)c1ccccc1C(=O)Nc1nc2ccccc2[nH]1	12	3	-22	i	0	2	9	6
COc1ccccc1C(=O)COC(=O)c1ccccc1O	18	-15	-8	i	4	5	0	15
